# Bioassay records (PubChem BioAssay)
# Rango-impB inh = qHTS Assay for Inhibitors of Rango (Ran-regulated importin-beta cargo) - Importin beta complex formation; Importin subunit beta-1 (Homo sapiens), Q14974; Rango CFP/YFP FRET sensor + importin beta, 45 min; Potency, µM (titrated, usually from 92.2 µM), for the others: at the highest dose inhibition of complex formation; 340,000 tested, 0.031% active; AID 540263, 2011; active = rising FRET ratio curve, often small or poorly fitted; inconclusive = mostly compound fluorescence or quenching in the first reads; inactive = flat curves in all reads;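 further: potency means the concentration at half of the fitted maximal effect; 0% = DMSO wells and 100% = buffer wells lacking importin beta; nearly all actives have a fitted effect of over 15% in size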
# Target sequence (Q14974 whole entry, looked up): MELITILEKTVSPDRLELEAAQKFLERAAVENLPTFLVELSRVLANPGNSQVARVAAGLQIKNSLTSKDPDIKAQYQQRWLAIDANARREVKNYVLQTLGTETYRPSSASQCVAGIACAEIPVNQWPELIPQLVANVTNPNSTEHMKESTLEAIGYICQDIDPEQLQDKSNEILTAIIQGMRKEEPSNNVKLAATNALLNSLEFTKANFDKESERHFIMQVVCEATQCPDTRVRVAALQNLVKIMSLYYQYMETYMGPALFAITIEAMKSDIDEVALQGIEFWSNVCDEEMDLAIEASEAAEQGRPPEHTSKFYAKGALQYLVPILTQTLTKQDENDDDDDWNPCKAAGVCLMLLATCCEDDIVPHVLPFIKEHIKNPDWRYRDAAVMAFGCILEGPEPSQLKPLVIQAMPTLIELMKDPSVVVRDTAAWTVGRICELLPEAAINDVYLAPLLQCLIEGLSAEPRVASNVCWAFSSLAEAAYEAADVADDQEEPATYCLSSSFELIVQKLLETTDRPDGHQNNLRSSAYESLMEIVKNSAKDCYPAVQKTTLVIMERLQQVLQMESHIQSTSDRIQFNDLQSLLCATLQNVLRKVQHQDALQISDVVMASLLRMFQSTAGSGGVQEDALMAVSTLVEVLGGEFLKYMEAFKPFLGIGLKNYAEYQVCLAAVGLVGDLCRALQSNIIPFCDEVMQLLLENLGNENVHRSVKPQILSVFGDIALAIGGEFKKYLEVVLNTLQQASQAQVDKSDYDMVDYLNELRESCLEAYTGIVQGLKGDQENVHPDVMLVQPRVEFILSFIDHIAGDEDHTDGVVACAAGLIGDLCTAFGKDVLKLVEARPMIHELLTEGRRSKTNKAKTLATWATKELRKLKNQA
#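 Inhibition scored from the CFP 486 nm/YFP 530 nm FRET ratio 45 min after adding 0.125 microM importin beta to 50 nM Rango biosensor preincubated 5 min with compound (room temperature, PBS with DTT, Tween-20, BSA). No-importin wells as positive control.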
# Rango release inh = qHTS Assay for Inhibitors of RanGTP induced Rango (Ran-regulated importin-beta cargo) - Importin beta complex dissociation | Snurportin-1 (Homo sapiens) + GTP-binding nuclear protein Ran (Homo sapiens) + Importin … | Biochemical FRET Rango-importin beta, RanGTP-induced dissociation | Potency, µM (titrated, usually from 46.1 µM), for the others: at the top dose activity change, negative = inhibition | 340,000 tested, 0.071% active | AID 540253, 2011; active means falling FRET ratio curve, often poorly fitted, with flat reads before Ran was added; inconclusive means other falling curves, or compound fluorescence or quenching; inactive means flat or rising ratio curve;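 further: potency means the concentration at half of the fitted maximal effect; % of control where 0% means no effect; nearly all actives have a fitted effect of over 45% in size; -100% = wells without RanGTP and RCC1; the record marks most hits as doubtful in a second field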
#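 FRET read at 45 min, room temperature: inhibitors block the CFP/YFP signal rise when RanGTP (0.6 uM Ran, 2 mM GTP, 0.2 uM RCC1) frees Rango (0.1 uM) from importin beta (0.25 uM). Pre-read after 5 min compound exposure flags interference.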
# GLA inh pH 4.5 = qHTS Assay for Inhibitors of Human alpha-Galactosidase at pH 4.5; 230,000 tested, under 10 active; activity change, negative = inhibition, % at 105 µM; purified enzyme, 4-MU-alpha-Gal fluorescence, pH 4.5; Alpha-galactosidase A (Homo sapiens), P06280; inconclusive = small, poorly fitted or top-dose-only inhibition, or a rising curve; inactive = flat fitted curve, though single readings scatter; no compound was filed as active;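 further: 0% = full activity with enzyme and -100% = basal without enzyme; dose as in the result columns while the protocol names 77 µM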
# miR-21 reporter = qHTS Assay for Modulators of miRNAs and/orActivators of miR-21 | Potency, µM (series often up to 38.3 µM), for inactives: at the top dose reporter change, positive = more light | HeLa miR-21 FLuc reporter, luciferase, 48 h | 340,000 tested, under 10 active; active = well fitted rising curve with a large enough effect; inconclusive = small, poorly fitted or top-dose-only effect; inactive = no such curve, though single readings can be large or run the other way;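 further: % of control where 0% means no effect; miR-21 action dims this reporter so a rising signal means less miR-21 action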
#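 HeLa cells endogenously expressing miR-21, stably carrying CMV-driven firefly luciferase with a downstream miR-21 binding site, 2000 cells/well. Titrations up to approximately 40 uM, 48 hours; luciferase luminescence read.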
# Starred values were filed as active, the others as inactive; u = inconclusive; x = not tested or not shown; & = joins results of further samples.
# Values in the order – Rango-impB inh | Rango release inh | GLA inh pH 4.5 | miR-21 reporter
O=S1(=O)N=C(N2CCc3ccccc3C2)c2ccccc21
→ 0.3% | -1% | 2 | -4%
Cc1ccc(S(=O)(=O)N(NC2=NS(=O)(=O)c3ccccc32)C(=O)c2ccccc2)cc1
→ 0.3% | 4% | -3 | -8%
CC(c1ccccc1)n1c(N2CCNCC2)nc2c1c(=O)[nH]c(=O)n2C (stereo unspecified)
→ -3.7% | 0% | x | -2%
COc1cc(C(=O)OCC(C)=O)c([N+](=O)[O-])cc1OC
→ -1.8% | 1% | 10 | 1%
COc1ccc(-c2cc(=Nc3ccc(C)cc3)c3ccccc3o2)cc1
→ -4.2% | 19% | x | -15%
O=c1nc2n(c3ccc([N+](=O)[O-])cc13)CCCCC2
→ -1.0% | 2% | 6 | 5%
Cc1ccc(SCCN)cc1C
→ 4.5% | 17% | 8 | -1%
CC(C)(C)Nc1nc(SCC(=O)Nc2ccccc2)nc(N2CCOCC2)n1
→ 0.3% | 1% | -9 | -11%
Fc1ccc(/C=N/NC(=S)Nc2ccc(Cl)cc2Cl)cc1
→ -0.2% | 2% | 5 | 3%
CCCCC(=O)NCc1ccc(F)cc1
→ -0.4% | 2% | -9 | -3%
O=C1CC(c2ccccc2)Cc2nc3nc(C(F)(F)F)nn3cc21 (stereo unspecified)
→ u | u | 1 | -3%
CC1OC(Nc2ccc(N=Nc3ccccc3)cc2)C(O)C(O)C1O (stereo unspecified)
→ 2.4% | -4% | -11 | -22%
CCCOc1ccc(Cn2c(O)cc(=O)[nH]c2=O)cc1
→ -2.8% | -11% | 4 | -2%
CC(C)Oc1ccc(CNC(=O)Cn2c(=O)oc3ccccc32)cc1
→ 2.3% | -2% | -3 | -5%&-8%
Cc1oc2c(c1C(=O)Nc1cccc(C(=O)O)c1)CCCC2
→ 0.4% | -10% | 1 | -27%
O=c1c2c3c(sc2nc2sc(C4CC4)nn12)CCCC3
→ 0.8% | 1% | 0 | -45%
Cn1c2ccccc2c(=O)c2c(=O)n(C3CCCCCC3)c(C3CCCCC3)nc21
→ 1.8% | -14% | -8 | -5%
COc1ccc(NS(=O)(=O)/C=C/c2ccccc2)cc1
→ -4.0% | -14% | 0 | -1%
Cc1cccc(OCC(=O)Nc2ccc3oc(=O)ccc3c2)c1
→ -0.5% | 28% | x | 1%
COc1ccccc1Nc1n[nH]c(=S)s1
→ -2.7% | 16% | 1 | -22%
COC(=O)[C@H](C(C)C)N(Cc1ccccc1)S(=O)(=O)CCN1CCN(c2ccccc2)CC1
→ -0.3% | 22% | x | x
O=C1[C@@H](c2ccccc2)[C@@H](c2ccccc2)N1c1cccnc1
→ -0.1% | 0% | x | x
Cc1ccc(CONC(=O)c2ccccc2Cl)cc1
→ 1.3% | 4% | x | x
Cc1nc2cc(-c3ccc(Cl)cc3)nn2c(C)c1CCC(=O)NC(C)c1ccc2c(c1)OCCO2 (stereo unspecified)
→ 2.8% | -5% | 2 | 19%
CCn1c(CNS(=O)(=O)c2ccc(Cl)cc2)n[nH]c1=S
→ -1.3% | 5% | -12 | 3%
CCCCN(Cc1nc2ccccc2c(=O)[nH]1)C(=O)CN1C(=O)NC2(CCCCC2)C1=O
→ u | u | x | x
COCCCNC(=O)C1CC(=O)N(C2CCCC2)C1 (stereo unspecified)
→ 2.6% | 13% | -6 | -2%
COc1ccccc1NC(=O)c1cc(C)nc2ccccc12
→ -0.2% | -13% | 8 | -2%
Cc1cc2[nH]c(=S)[nH]c2cc1C
→ -0.2% | 15% | -13 | -18%
COc1ccc(NC(=O)COc2ccc(S(=O)(=O)N3CCOCC3)cc2C)cc1OC
→ -0.3% | 0% | x | -2%
CC(=O)c1ccc(NC(=O)C(C)OC(=O)c2ccc3c(c2)nc(C)n3-c2ccccc2)cc1 (stereo unspecified)
→ -2.2% | -2% | -9 | -46%
CCOC(=O)/C(=C\C=C\N1CCOCC1)C(C)=O
→ -1.2% | 0% | -24 | -3%
Cc1ccc2c(N)c(C(=O)c3ccccc3)sc2n1
→ u | u | -1 | -34%
O=C(COc1ccc(-n2cnnn2)cc1)N1CCN(c2ccc(F)cc2)CC1
→ 7.4% | 15% | 0 | -4%
Oc1ccc(/C=N/N(c2ccccc2)c2ccccc2)cc1O
→ -5.8% | 8% | x | 8%
CCCC(=O)Nc1nc(C(=O)OCC)cs1
→ -0.5% | -8% | 6 | -12%
CC(=O)c1ccc(OCC(=O)OC(C)C(=O)NC2CCCCC2)cc1 (stereo unspecified)
→ 3.6% | 12% | x | x
CC(C)CCOCC(=O)Nc1cccc(C(=O)O)c1
→ -2.1% | 0% | 2 | -46%
CN(C)S(=O)(=O)c1ccc(Cl)c(C(=O)Nc2cccc3ncccc23)c1
→ 2.7% | 9% | x | 13%
COc1ccc(C2C=C(c3ccccc3)Nc3nc(CCCO)nn32)cc1 (stereo unspecified)
→ u | u | 7 | -3%

# By substructure: the entries above containing a nitro group on carbon (2)
# Values in the order – Rango-impB inh | Rango release inh | GLA inh pH 4.5 | miR-21 reporter
COc1cc(C(=O)OCC(C)=O)c([N+](=O)[O-])cc1OC
→ -1.8% | 1% | 10 | 1%
O=c1nc2n(c3ccc([N+](=O)[O-])cc13)CCCCC2
→ -1.0% | 2% | 6 | 5%

# (listing goes on)
# Values in the order – Rango-impB inh | Rango release inh | GLA inh pH 4.5 | miR-21 reporter
O=C(NCC(=O)N(c1ccc(Cl)cc1)C(C(=O)NC1CCCC1)c1ccncc1)c1ccco1 (stereo unspecified)
→ -1.1% | 34% | x | -3%
OCCCNc1nc(-c2ccc(Cl)cc2)nnc1-c1ccc(Br)cc1
→ 0.6% | -16% | -15 | -22%
N#Cc1cnn2ccc(-c3cc(N4CCOCC4)ccc3[N+](=O)[O-])nc12
→ -1.8% | -12% | -12 | -1%
COc1cccc(NC(=O)C2C3CC4OC(=O)C2C4C3)c1 (stereo unspecified)
→ -1.2% | 1% | -15 | -2%
Cc1ccc2nc(-c3ccc(NC(=O)COC(=O)c4ccc(Br)o4)cc3)sc2c1
→ -1.3% | -10% | 10 | -30%
CCc1cccc2c1NC(=O)C2=O
→ 0.5% | -1% | x | x
O=C(O[C@@H](C(=O)O)[C@@H](OC(=O)c1ccccc1)C(=O)O)c1ccccc1
→ 0.4% | -7% | x | x
O=C(O)c1cc(O)c2c(c1)[C@@H]([C@H]1c3cc(C(=O)O)cc(O)c3C(=O)c3c(O[C@@H]4O[C@H](CO)[C@@H](O)[C@H](O)[C@H]4O)cccc31)c1cccc(O[C@@H]3O[C@H](CO)[C@@H](O)[C@H](O)[C@H]3O)c1C2=O
→ u | u | x | x
O=C(COC(=O)c1cccc(S(=O)(=O)N2CCOCC2)c1)NCc1ccccc1
→ 1.7% | 18% | x | x
Cc1ccc(S(=O)(=O)NC2=NCN(C)CN2)cc1[N+](=O)[O-]
→ -3.0% | u | x | -1%
CCOC(=O)N/N=C/c1ccc(OCCSc2ccc(Cl)cc2)c(OCC)c1
→ 4.1% | 3% | 5 | 20%
CCn1nnc2sc3c(c2c1=O)CCC(C)C3 (stereo unspecified)
→ 0.1% | -11% | 0 | -37%
CCc1nn(C(C)C(=O)N2CCN(c3ccccc3)CC2)c(=O)c2cc3occc3n12 (stereo unspecified)
→ 0.6% | 1% | x | -3%&10%
O=C(CSc1ncn[nH]1)NCc1ccc2c(c1)OCO2
→ 3.1% | -4% | -1 | 2%
Cc1ccc(NC(=S)N2CCCC2)cc1Cl
→ 0.3% | -18% | x | -27%
COC(=O)c1cc(NC(=O)CC2SCCNC2=O)cc(C(=O)OC)c1 (stereo unspecified)
→ -0.9% | 4% | 12 | 7%
O=C(NCC(O)CO)c1ccc2[nH]c3ccccc3c2c1 (stereo unspecified)
→ -0.1% | 5% | -3 | -11%
CS(=O)(=O)c1sc(C(=O)NC(=S)Nc2ccc(OC(F)(F)F)cc2)c2c1C=CCC2
→ -1.4% | -8% | -1 | 9%
Cc1ccc(CS(=O)(=O)Cc2ccc(C(=O)NCc3ccco3)o2)cc1
→ 7.3% | 17% | 7 | 0%
Cc1cc(C(=O)COC(=O)c2n[nH]c3ccccc23)c(C)n1C
→ 0.5% | 9% | -3 | -24%
CCN(Cc1nc2ccccc2c(=O)[nH]1)C(=O)c1cccc(NC(=O)c2cccs2)c1
→ -4.3% | -13% | x | x
COc1cccc(-c2nnc(SCC(=O)N(C(C)C)C(C)C)o2)c1
→ 4.6% | -5% | -7 | -21%
CC1CC(C)CN(C(=O)CN2C(=O)NC(C)(C)C2=O)C1 (stereo unspecified)
→ -4.4% | 12% | x | x
CCCCn1c(N)c(N(CC(C)C)C(=O)c2c(-c3ccccc3)noc2C)c(=O)[nH]c1=O
→ -2.3% | -6% | x | x
O=C(CN1CCN(Cc2ccccc2Cl)CC1)N/N=C/C=C/c1ccco1
→ 0.1% | u | -4 | 0%
COc1ccc(/C=C/C(=O)Oc2cccc(/C=N/NC(=O)c3cccc(F)c3)c2)cc1
→ -0.7% | -1% | -13 | -42%
Cc1ccc(CN2CCCN(Cc3ccc(F)cc3Cl)S2(=O)=O)cc1
→ 6.2% | -9% | x | -1%
CCOC(=O)Cn1c(SC)nc2sc3c(c2c1=O)CC(C)(C)OC3
→ 1.5% | 0% | 2 | 0%
O=C(CCN1CCc2ccccc2C1)Nc1cccc(F)c1
→ 1.4% | -13% | 6 | -14%
FC(F)(F)c1cnc2c(c1)Nc1ccccc1S2
→ u | u | -7 | -35%
Cc1ccc(CN2CC(C(=O)Nc3ccncc3)CC2=O)cc1 (stereo unspecified)
→ 0.7% | -13% | x | 1%
C(=N\n1cnnc1)/c1cccc(Oc2ccccc2)c1
→ 0.9% | 21% | 1 | -2%
CCc1cc2cc(C)cc(C)c2nc1SCC(=O)N1CCN(C(=O)c2ccco2)CC1
→ 0.6% | 26% | -3 | -1%
COc1cc(C(=O)Nc2ccc(NC(=O)C(C)C)nc2)cc(OC)c1OC
→ -0.1% | -4% | 4 | -2%
C=CCn1c(=O)c(C(=O)NCc2ccc(Cl)cc2)c(O)c2ccccc21
→ 2.3% | 4% | x | 0%
O=C(Nc1ccc(N2CCOCC2)c(Cl)c1)c1ccccc1Cl
→ -1.5% | 3% | 4 | -60%
O=C(CN1CCSCC1)N/N=C/c1ccc(F)cc1F
→ 0.9% | 9% | 8 | -6%
CC(C)(C)NCCCCOc1ccccc1F
→ 7.6% | 2% | -1 | -8%
O=C1OC(CO)CN1Cc1ccccc1 (stereo unspecified)
→ -6.2% | -6% | x | -3%
CCOC(=O)c1ccc(N/C=C/C(=O)c2ccccc2)cc1
→ u | -25% | -20 | 10%
O=C(c1ccc(CS(=O)Cc2ccccc2Cl)o1)N1CCN(c2cccc(Cl)c2)CC1 (stereo unspecified)
→ -0.1% | -12% | x | u
Cc1ccccc1C(=O)c1cccn1CC(=O)NC(C)CCc1ccccc1 (stereo unspecified)
→ 2.0% | 4% | x | 2%
COc1ccc(NC(=O)CSCC(=O)N2CCN(c3cccc(C(F)(F)F)c3)CC2)cc1
→ 5.9% | -4% | x | x
COc1cccc(/C=C/C(=O)c2ccc(C)c([N+](=O)[O-])c2)c1
→ -1.3% | 2% | 3 | -9%
CSc1ccc(COC(=O)c2cc([N+](=O)[O-])ccc2N2CCOCC2)cc1
→ -3.3% | 25% | x | x
Cc1ccc(N(Cc2cc(=O)[nH]c3ccccc23)C(=O)CCl)c(C)c1
→ -1.2% | -4% | x | u
COCCNC(=O)C1CC(=O)N(CCc2ccccc2)C1 (stereo unspecified)
→ 1.5% | 1% | 6 | -3%
NC(=O)CSc1nnc(-c2cccc(S(=O)(=O)N3CCOCC3)c2)n1C1CCCCCC1
→ 0.8% | 0% | -5 | -1%
CCC(CO)NCCNC(CC)CO (stereo unspecified)
→ -1.8% | u | 1&2 | 5%
CCCOC(=O)Nc1cc(OC)c(Cl)cc1OC
→ 7.5% | 3% | -2 | -7%
Cc1nnc(NC(=O)C2(c3ccccc3)CCOCC2)s1
→ -0.5% | -12% | 6 | 0%

# These rows are one share of the data; the hit share may differ from the screen's.
